Compound activity as filed in PubChem.
UUG fidelity = alters start codon recognition fidelity in yeast; AID 602363; S. cerevisiae UUG-firefly luciferase reporter, luminescence/redox ratio; 350,000 tested, 0.13% active; activity score, % at 18.7 µM;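 active = replicate mean at a twofold rise or more, about +100% in these data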;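 also: firefly luciferase made from a UUG start codon reports start codon fidelity; reporter light over untreated wells divided by growth signal over untreated wells; some hits fall short of that in this replicate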
Env fusion inh = inhibitors of HIV Env-mediated cell fusion. HeLa-JRFL Env/CEM21 cell fusion, luciferase. inhibition, % at 12.3 µM. 360,000 tested, 1.1% active. AID 651610;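 active = mean replicate inhibition score of at least 50 and every replicate individually at or above 50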;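 also: 0% = plate neutral controls and 100% = maraviroc near 300 nM; one replicate is shown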
* hit, by the source's call; & = joins results of further samples; [ ] = dose if it differs, or a comment.

canonical_smiles	UUG fidelity	Env fusion inh
COCC#Cc1ccc2c(c1)O[C@H](CN(C)S(=O)(=O)c1cccc(OC)c1)[C@@H](C)CN([C@H](C)CO)S2(=O)=O	-7.1	-10.1[16.7 µM]
C[C@@H]1CCCCO[C@@H](CN(C)Cc2ccc(C(F)(F)F)cc2)[C@@H](C)CN([C@@H](C)CO)C(=O)c2cc(NS(C)(=O)=O)ccc2O1	15.5	-19.3[16.7 µM]
C[C@@H]1CN([C@H](C)CO)C(=O)c2cc(NC(=O)c3ccccc3)ccc2O[C@@H](C)CCCCO[C@@H]1CN(C)C(=O)Cc1ccccc1	-6.6	18.6[16.7 µM]
C[C@@H]1CCCCO[C@H](CN(C)S(=O)(=O)c2ccc(Cl)cc2)[C@@H](C)CN([C@H](C)CO)C(=O)c2cc(NS(=O)(=O)c3cn(C)cn3)ccc2O1	11.0	-0.4[16.7 µM]
Cc1noc(C)c1S(=O)(=O)Nc1ccc2c(c1)C(=O)N([C@H](C)CO)C[C@H](C)[C@H](CN(C)S(=O)(=O)c1ccc(Cl)cc1)O2	-3.2	-4.7[16.7 µM]
C[C@H](CO)N1C[C@H](C)[C@H](CN(C)S(=O)(=O)c2ccc(F)cc2)Oc2ccc(NC(=O)Nc3ccc(F)cc3)cc2C1=O	7.0	20.5[16.7 µM]
C[C@@H]1CCCCO[C@@H](CN(C)S(=O)(=O)c2ccccc2)[C@H](C)CN([C@H](C)CO)C(=O)c2cc(NC(=O)Nc3ccc(F)cc3)ccc2O1	-15.7	35.3[16.7 µM]
C[C@@H]1CCCCO[C@H](CN(C)C(=O)Nc2ccc3c(c2)OCO3)[C@@H](C)CN([C@@H](C)CO)C(=O)c2cc(NC(=O)CCC(F)(F)F)ccc2O1	36.0	6.5[16.7 µM]
C[C@H](CO)N1C[C@H](C)[C@H](CN(C)S(=O)(=O)c2ccccc2)Oc2ccc(NS(=O)(=O)c3cccs3)cc2C1=O	20.2	-5.8[16.7 µM]
COC(=O)C[C@@H]1CC[C@@H]2[C@@H](COc3ccc(NC(=O)NCc4ccccc4)cc3C(=O)N2C)O1	9.1	-14.4[16.7 µM]
C[C@H]1CN([C@@H](C)CO)C(=O)c2cc(-c3ccc(F)cc3)cnc2O[C@@H]1CN(C)C(=O)c1ccccc1F	1.0	-10.9[16.7 µM]
COc1ccc(NC(=O)N(C)C[C@H]2Oc3ccc(NS(=O)(=O)c4ccccc4)cc3C(=O)N([C@H](C)CO)C[C@@H]2C)cc1	-11.8&0.2	3.4[16.7 µM]
C[C@H](CO)N1C[C@H](C)[C@H](CN(C)C(=O)Nc2ccc(F)cc2)OCCCC[C@H](C)Oc2ccc(N(C)C)cc2C1=O	-0.4	-17.4[16.7 µM]
COc1cccc(NC(=O)Nc2ccc3c(c2)C(=O)N(C)C[C@@H](OC)[C@H](C)CN[C@@H](C)CO3)c1	-6.6	-5.0[16.7 µM]
C[C@H](CO)N1C[C@H](C)[C@H](CN(C)C)Oc2c(NS(C)(=O)=O)cccc2C1=O	4.8	-75.8[16.7 µM]
O=C(C[C@H]1CC[C@@H](NC(=O)c2ccc3c(c2)OCO3)[C@H](CO)O1)NCc1ccc(F)cc1	-13.7	12.0[16.7 µM]
CCCC#Cc1cnc2c(c1)C(=O)N([C@H](C)CO)C[C@@H](C)[C@@H](CN(C)C(=O)c1cnccn1)O2	6.0	0.4[16.7 µM]
O=C(C[C@@H]1CC[C@H]2[C@@H](COC[C@H](O)CN2Cc2ccc(F)cc2)O1)NCc1ccncn1	-2.9	-2.7[16.7 µM]
O=C(C[C@@H]1CC[C@H](NC(=O)Nc2ccc3c(c2)OCO3)[C@H](CO)O1)NCc1ccc(Cl)cc1	14.9	1.6[16.7 µM]
C[C@@H]1CN([C@H](C)CO)C(=O)Cc2cc(NS(=O)(=O)c3ccc(Cl)cc3)ccc2O[C@@H]1CN(C)Cc1ccc2c(c1)OCO2	12.1	-2.2[16.7 µM]
C[C@@H]1CN([C@H](C)CO)C(=O)c2cc(C3=CCCC3)cnc2O[C@@H]1CN(C)C(=O)Cc1ccncc1	-3.8	-17.2[16.7 µM]
Cc1noc(C)c1NC(=O)N(C)C[C@@H]1OCCCC[C@@H](C)Oc2ccc(NS(=O)(=O)c3ccccc3)cc2C(=O)N([C@@H](C)CO)C[C@H]1C	-8.3	-4.0[16.7 µM]
C[C@@H]1CN([C@@H](C)CO)C(=O)Cc2cc(NC(=O)Nc3ccc4c(c3)OCO4)ccc2O[C@@H]1CN(C)Cc1ccccc1	4.8	-49.1[16.7 µM]
O=C(N[C@H]1CC[C@@H](CCn2cc(-c3ccccn3)nn2)O[C@H]1CO)c1ccncc1	-13.8	11.9[16.7 µM]
Cc1noc(C)c1S(=O)(=O)Nc1ccc2c(c1)C(=O)N([C@H](C)CO)C[C@H](C)[C@@H](CN(C)S(=O)(=O)c1ccccc1)OCCCC[C@H](C)O2	2.4	-92.6[16.7 µM]
COc1ccc(NC(=O)Nc2ccc3c(c2)C(=O)N([C@@H](C)CO)C[C@H](C)[C@H](CN(C)C(=O)NC2CCCCC2)OCCCC[C@H](C)O3)cc1	15.6	15.6[16.7 µM]
CCC(=O)Nc1ccc2c(c1)OC[C@H](C)N(C(=O)c1ccncc1)C[C@@H](C)[C@@H](OC)CN(C)C2=O	-12.3	2.9[16.7 µM]
C[C@@H]1CN([C@H](C)CO)S(=O)(=O)c2ccc(-c3cncnc3)cc2O[C@H]1CN(C)CC1CC1	-10.0	3.2[16.7 µM]
C[C@H]1CN([C@@H](C)CO)C(=O)Cc2cc(NC(=O)Nc3cccc4ccccc34)ccc2O[C@H]1CN(C)Cc1ccc(Oc2ccccc2)cc1	-6.0	1.9[16.7 µM]
Cc1noc(C)c1NC(=O)N(C)C[C@H]1Oc2ccc(NC(=O)Nc3ccccc3)cc2CC(=O)N([C@H](C)CO)C[C@@H]1C	15.5	3.2[16.7 µM]

(more compounds)
canonical_smiles	UUG fidelity	Env fusion inh
C[C@@H]1CN([C@H](C)CO)C(=O)c2cc(C#CC3CCCCC3)cnc2O[C@H]1CN(C)S(=O)(=O)c1ccc(F)cc1	-15.8	9.9[16.7 µM]
C[C@@H]1CN([C@@H](C)CO)C(=O)c2cc(-c3cccc(C(=O)N(C)C)c3)cnc2O[C@H]1CN(C)S(=O)(=O)c1ccc(F)cc1	9.0	27.2[16.7 µM]
Cc1ccc(S(=O)(=O)N(C)C)cc1NC(=O)C(C)OC(=O)CC1CC2CCC1C2 (stereo unspecified)	21.3	-8.0
CC(C)NC(=O)N(C)C[C@@H]1Oc2c(NC(=O)Nc3ccc(C(F)(F)F)cc3)cccc2C(=O)N([C@H](C)CO)C[C@H]1C	8.1	34.5[16.7 µM]
C[C@H]1CN([C@@H](C)CO)C(=O)c2cc(NC(=O)C3CCCCC3)ccc2O[C@H]1CN(C)Cc1ccncc1	1.8	13.3[16.7 µM]
C[C@@H]1CN([C@@H](C)CO)C(=O)c2cccc(NC(=O)c3ccncc3)c2O[C@H]1CN(C)C(=O)Nc1ccc(C(F)(F)F)cc1	11.2	-6.4[16.7 µM]
C[C@@H]1CN([C@@H](C)CO)C(=O)Cc2cc(N(C)C)ccc2O[C@H]1CN(C)Cc1ccncc1	2.7	12.0[16.7 µM]
CCC(=O)N(C)C[C@H]1Oc2ncc(-c3ccccc3F)cc2C(=O)N([C@@H](C)CO)C[C@H]1C	2.6	-12.2[16.7 µM]
C[C@@H]1CCCCO[C@@H](CN(C)C(=O)Nc2ccc(F)cc2)[C@@H](C)CN([C@H](C)CO)C(=O)c2cc(NS(=O)(=O)c3ccc(Cl)cc3)ccc2O1	6.5	-8.9[16.7 µM]
Cc1noc(C)c1NC(=O)Nc1ccc2c(c1)CC(=O)N([C@@H](C)CO)C[C@H](C)[C@H](CN(C)CC1CCCCC1)O2	-10.8	-24.2[16.7 µM]
O=C(C[C@H]1C[C@H]2c3cc(NC(=O)CC4CC4)ccc3O[C@H]2[C@@H](CO)O1)NCCc1ccccc1	1.7	-9.2[16.7 µM]
COc1ccc(S(=O)(=O)N(C)C[C@H]2Oc3c(NC(=O)c4ccc(-c5nccs5)cc4)cccc3C(=O)N([C@H](C)CO)C[C@H]2C)cc1	0.4	5.0[16.7 µM]
Cc1ccccc1S(=O)(=O)N[C@@H]1CC[C@H](CCn2cc(-c3ccccc3)nn2)O[C@H]1CO	2.2	-6.5[16.7 µM]
CNC[C@@H]1Oc2ccc(NC(=O)Nc3ccc(C(F)(F)F)cc3)cc2C(=O)N([C@@H](C)CO)C[C@H]1C	12.9	-10.5[16.7 µM]
CCCC#Cc1ccc2c(c1)O[C@@H](CN(C)C(=O)NCCC)[C@@H](C)CN([C@H](C)CO)S2(=O)=O	22.1	-3.7[16.7 µM]
C[C@@H]1CCCCO[C@H](CN(C)C(=O)c2ccncc2)[C@H](C)CN([C@H](C)CO)C(=O)c2cc(NS(=O)(=O)c3cccs3)ccc2O1	15.9	9.8[16.7 µM]
C[C@@H]1CCCCO[C@H](CN(C)C(=O)CCCN(C)C)[C@@H](C)CN([C@@H](C)CO)C(=O)c2cc(NC(=O)Nc3cccc4ccccc34)ccc2O1	14.6	-2.1[16.7 µM]
C[C@@H]1CN([C@H](C)CO)C(=O)c2cccc(NS(=O)(=O)c3ccccc3)c2O[C@@H]1CN(C)S(=O)(=O)c1ccc(Cl)cc1	-12.8	16.2[16.7 µM]
COCC(=O)Nc1ccc2c(c1)C(=O)N(C)C[C@@H](OC)[C@@H](C)CN(C(=O)CC1CC1)[C@H](C)CO2	-2.5	16.6[16.7 µM]
C[C@@H]1CCCCO[C@@H](CN(C)C(=O)CCCN(C)C)[C@H](C)CN([C@H](C)CO)C(=O)c2cc(NC(=O)NC3CCCCC3)ccc2O1	8.4	-1.6[16.7 µM]
CO[C@H]1CN(C)C(=O)c2ccc(NC(C)=O)cc2OC[C@@H](C)N(Cc2ccccn2)C[C@@H]1C	-30.2	-5.5[16.7 µM]
C[C@@H]1CCCCO[C@@H](CN(C)Cc2ccncc2)[C@@H](C)CN([C@H](C)CO)C(=O)c2cc(NC(=O)Nc3ccc(C(F)(F)F)cc3)ccc2O1	11.9	-6.2[16.7 µM]
C[C@H]1CCCCO[C@@H](CN(C)C(=O)C2CCCCC2)[C@@H](C)CN([C@@H](C)CO)C(=O)c2cc(NC(=O)Nc3ccc(F)cc3)ccc2O1	-11.2	28.0[16.7 µM]
CC(C)NC(=O)Nc1ccc2c(c1)C(=O)N([C@H](C)CO)C[C@@H](C)[C@H](CN(C)Cc1ccc(C(=O)Nc3ccccc3N)cc1)O2	14.1	20.2[16.7 µM]
C[C@H]1CN([C@@H](C)CO)C(=O)c2cc(NC(=O)Nc3cccc4ccccc34)ccc2O[C@H]1CN(C)Cc1ccc(C(F)(F)F)cc1	15.9	26.2[16.7 µM]
O=C(Nc1ccc2c(c1)[C@@H]1C[C@@H](CC(=O)N3CCc4ccccc4C3)O[C@@H](CO)[C@@H]1O2)NC1CCCC1	0.8	-18.1[16.7 µM]
C[C@@H]1CN([C@H](C)CO)C(=O)c2cc(NS(=O)(=O)c3ccccc3)ccc2O[C@@H](C)CCCCO[C@@H]1CN(C)Cc1ccc2c(c1)OCO2	12.1	3.5[16.7 µM]
C[C@H]1CCCCO[C@H](CN(C)C(=O)Nc2ccc3c(c2)OCO3)[C@@H](C)CN([C@@H](C)CO)C(=O)c2cc(NS(=O)(=O)c3cccs3)ccc2O1	-1.2	5.2[16.7 µM]
C[C@@H]1CCCCO[C@H](CN(C)C(=O)Cc2ccccc2)[C@H](C)CN([C@H](C)CO)C(=O)c2cc(NC(=O)c3ccncc3)ccc2O1	23.8	15.5[16.7 µM]
O=C(Nc1ccc2c(c1)OCO2)N[C@@H]1CC[C@@H](CCNC(=O)C2CCOCC2)O[C@H]1CO	3.9	-18.6[16.7 µM]

The listing continues:
canonical_smiles	UUG fidelity	Env fusion inh
CNC(=O)C[C@H]1CC[C@H]2[C@@H](COc3ccc(NC(=O)Nc4ccc(Cl)cc4)cc3C(=O)N2C)O1	11.9	20.4[16.7 µM]
C[C@H](CO)N1C[C@H](C)[C@H](CN(C)S(=O)(=O)c2cccs2)Oc2ccc(NC(=O)Cc3cn(C)c4ccccc34)cc2CC1=O	0.7	95.6*[16.7 µM]
CCNC(=O)C[C@H]1C=C[C@H](NC(=O)C2CCC2)[C@@H](CO)O1	-14.6	7.4[16.7 µM]
O=C(Cc1ccccn1)N[C@H]1CC[C@H](CCn2cc(-c3cccnc3)nn2)O[C@@H]1CO	-7.1	15.2[16.7 µM]
C[C@H](CO)N1C[C@H](C)[C@H](CN(C)S(=O)(=O)c2cn(C)cn2)OCCCC[C@H](C)Oc2ccc(NC(=O)Nc3ccccc3)cc2C1=O	-0.7	-1.5[16.7 µM]
Cc1ccc(S(=O)(=O)N(C)C[C@H]2Oc3c(NC(=O)Nc4ccc(C(F)(F)F)cc4)cccc3C(=O)N([C@@H](C)CO)C[C@@H]2C)cc1	-11.3	-30.5[16.7 µM]
N#C[C@@H]1[C@H](c2ccccc2)[C@@H](CO)N1C(=O)CN1CCOCC1	-2.6	0.2[16.7 µM]

Pulled by structure from the list above (three):
canonical_smiles	UUG fidelity	Env fusion inh
C[C@@H]1CCCCO[C@H](CN(C)C(=O)CCCN(C)C)[C@@H](C)CN([C@@H](C)CO)C(=O)c2cc(NC(=O)Nc3cccc4ccccc34)ccc2O1	14.6	-2.1[16.7 µM]
C[C@H]1CCCCO[C@H](CN(C)C(=O)Nc2ccc3c(c2)OCO3)[C@@H](C)CN([C@@H](C)CO)C(=O)c2cc(NS(=O)(=O)c3cccs3)ccc2O1	-1.2	5.2[16.7 µM]
C[C@@H]1CCCCO[C@@H](CN(C)S(=O)(=O)c2ccccc2)[C@H](C)CN([C@H](C)CO)C(=O)c2cc(NC(=O)Nc3ccc(F)cc3)ccc2O1	-15.7	35.3[16.7 µM]

The list is partial; count on the stated rates, not on these rows.
